TRPML1 ag – human mucolipin-1 channel agonism; TRPML1-expressing cells, Ca2+ dye fluorescence, FDSS; host cell line not named in the record; reference of the full effect not given here; activation, % (concentration not given with the values); AID 624414; Q9GZU1; 410,000 compounds, 0.12% hits; in the data active = activation above about 50%; inconclusive = about 30% to 50%; inactive = below about 30%; note: 0% is about no effect; the text of the record puts the active cut at 80%
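Calcium fluorescence on an FDSS kinetic reader gave the read-out. Tet-induced TRPML1-DL cells were plated overnight, dye-loaded (Ca8 with quencher, 45-90 min, room temperature, dark), then read 110 s after compound addition, and again 110 s after 4uM final 54-4 (EC80).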
D2 potentiator – potentiates the human D2 dopamine receptor allosterically. 360,000 compounds, 0.23% hits. AID 624464. P14416. potentiation, % (concentration not given with the values). DiscoveRx D2 beta-arrestin cells, luminescence, 90 min; 100% = 57 uM dopamine signal; active = potentiation of 50% or more; inconclusive = 30% to 50%; inactive = 30% or less;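 note: tested on top of an EC20 dose of dopamine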
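D2 cells co-treated with compound plus 50 nM dopamine (EC20) for 90 min at 37 deg C to detect potentiation. Beta-arrestin recruitment was read as enzyme-fragment luminescence after 1 h at ambient temperature. Full response was set by 57 uM dopamine.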
PINK1 expr mod – changes PINK1 expression; Potency, µM (highest dose often 76.6 µM), for the others: top-dose activation (PINK1 increase), most hits filed as activators; PINK1 immunofluorescence, high-content cytometry, 24 h; 410,000 compounds, 0.2% hits; active = well fitted activation curve with a large enough effect; inconclusive = small, poorly fitted or top-dose-only effect; inactive = flat fitted curve, though single readings scatter; cell line not stated here;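 note: potency is the fitted concentration of half-maximal effect; % of control where 0% means no effect; nearly all actives have a fitted effect of over 65% in size; a mitochondrial uncoupler was the plate control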
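Measures PINK1 amount and localization on or inside mitochondria by immunofluorescence. Stable cells get compounds at 5 concentrations for 24 hours before fixation and staining; CCCP controls included.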
CtBP-E1A blk – CtBP/E1A binding inhibition. AID 651724. AlphaScreen GST-E1A/His-CtBP binding, 1536-well; hits give low values; control for the full effect not named in the record. 340,000 compounds, 0.49% hits. activity change, % (no concentration beside the values); in the data active means activity change below about -65%; inconclusive means about -30% to -65%; inactive means above about -30%; note: % is set by controls: 0 for no effect and ±100 for the full control effect
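GST-E1A and His-tagged CtBP (125 nM each as 5X stock) were preincubated with pin-transferred compound for 2 h at 37 °C in the dark, then glutathione donor and nickel acceptor beads were added for 1 h before AlphaScreen reading.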
Six1-Eya2 inh – Six1/Eya2 interaction inhibition; AID 651725; Q15475+O00167; activity change, % (concentration not given with the values); 360,000 compounds, 0.56% hits; AlphaScreen GST-Six1/His-Eya2 binding, biochemical; hits give low values; control for the full effect not named in the record; in the data active = activity change below about -65%; inconclusive = about -30% to -65%; inactive = above about -30%; note: % is set by controls: 0 for no effect and ±100 for the full control effect
Target sequence (O00167 whole entry, looked up): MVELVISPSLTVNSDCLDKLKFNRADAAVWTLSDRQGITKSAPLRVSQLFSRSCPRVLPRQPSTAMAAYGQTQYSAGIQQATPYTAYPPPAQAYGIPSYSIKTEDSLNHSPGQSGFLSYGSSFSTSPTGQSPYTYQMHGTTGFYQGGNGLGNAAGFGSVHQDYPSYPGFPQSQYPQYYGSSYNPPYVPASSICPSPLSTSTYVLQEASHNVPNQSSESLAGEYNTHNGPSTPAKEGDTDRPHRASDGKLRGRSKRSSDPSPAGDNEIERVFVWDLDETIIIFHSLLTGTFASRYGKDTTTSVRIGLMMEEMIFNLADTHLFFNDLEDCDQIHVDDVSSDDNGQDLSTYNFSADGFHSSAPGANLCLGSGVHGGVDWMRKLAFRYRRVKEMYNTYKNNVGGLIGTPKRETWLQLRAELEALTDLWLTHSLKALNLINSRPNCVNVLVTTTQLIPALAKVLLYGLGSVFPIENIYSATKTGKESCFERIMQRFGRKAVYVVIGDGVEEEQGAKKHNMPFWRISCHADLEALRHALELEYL
Target sequence (Q15475 whole entry, looked up): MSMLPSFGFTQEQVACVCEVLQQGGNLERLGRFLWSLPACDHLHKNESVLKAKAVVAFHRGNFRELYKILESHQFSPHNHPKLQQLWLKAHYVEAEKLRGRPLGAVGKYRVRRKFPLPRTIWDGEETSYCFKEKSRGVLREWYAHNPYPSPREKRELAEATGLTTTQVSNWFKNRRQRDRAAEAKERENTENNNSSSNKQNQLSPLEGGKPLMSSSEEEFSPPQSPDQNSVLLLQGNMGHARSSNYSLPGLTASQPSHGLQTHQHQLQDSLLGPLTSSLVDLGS
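AlphaScreen luminescence read after one hour at 37 °C in darkness. Pin-transferred compounds met GST-Six1 and His-Eya2 protein (5X stock 250 nM/500 nM) plus glutathione donor and Ni-chelate acceptor beads (5X, 50 ug/mL).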
D2 agonist – activates the human D2 dopamine receptor; DiscoveRx PathHunter D2 beta-arrestin, luminescence, 90 min; 100% = 57 uM dopamine signal; P14416; 360,000 compounds, 0.084% hits; activation, % (no concentration beside the values); in the data active = activation above about 40%; inconclusive = about 15% to 40%; inactive = below about 15%; note: compound concentration not given in the record; the text of the record calls up to 30% inactive
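Agonist mode: compounds alone added to overnight-plated D2 PathHunter cells for 90 min at 37 C, with 57 uM final dopamine (EC100) defining full response. Beta-arrestin recruitment detected by chemiluminescent reagent, read after 1 h at ambient temperature.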
Numbers without * were called inactive; ? = inconclusive; · = no result given; [ ] = another dose, or the depositor's remark.

The line under a structure holds: TRPML1 ag	D2 potentiator	PINK1 expr mod	CtBP-E1A blk	Six1-Eya2 inh	D2 agonist
(1) O=C(OCc1nnc(-c2ccccc2)o1)C1CC(=O)N(Cc2ccco2)C1 (stereo not given)
  0.4	-13	-0.8%	-16	8	1.7
(2) CCCCn1c(SCC(=O)Nc2cc(C)on2)nc2cc(S(N)(=O)=O)ccc21
  2.7	0	0.1%	-11	-1	-4.4
(3) Nc1ncnc2c1ncn2[C@@H]1O[C@H](CNCC#Cc2ccccc2)[C@@H](O)[C@H]1O
  0.4	-3	0.8%	0	0	4.0
(4) O=c1nc(NC2CCCC2)ccn1Cc1cccc(Br)c1
  0.2	-16	·	0	3	0.0
(5) COc1cc(CN2CCNC(=O)C2CC(=O)N(Cc2nccn2C)C(C)C)cc(OC)c1 (stereo not given)
  0.8	-4	1.2%	3	0	-4.5
(6) Cc1cccc(/C=C2\Sc3ccc(C(=O)N4CCCCC4)cc3N(C)C2=O)c1
  2.7	-10	16%	·	-5	3.2
(7) C/[N+]([O-])=C\C1C(=O)CC(C)(C)CC1=O
  -0.5	2	-3.8%	7	-17	3.3
(8) CC(C)(C)NC(=O)c1cnn(-c2ccccc2)c1NC(=O)c1ccccc1
  0.1	-25	·	10	1	-3.8
(9) Cn1cccc1/C=N\NC(=O)Cc1ccc(Br)c2ccccc12
  1.8	-15	6.8%	·	-6	10
(10) COC(=O)c1ccccc1C(=O)N(c1ccccc1)c1ccccc1
  0.3	-2	-0.1%	10	11	3.6
(11) O=C(NN=Cc1c(O)ccc2ccccc12)c1ccc2c(c1)OCO2
  7.1	-2	?	-21	-8	4.0
(12) CC(Oc1cc2oc(=O)c3c(c2cc1Cl)CCC3)C(=O)NCc1cccnc1 (stereo not given)
  -0.2	-11	-0.6%	2	2	-2.8
(13) COC(=O)C(C(=O)OC)N1C(=O)CCC1=O
  3.4	4	3.3%[38.3 µM]	5	3	-2.6
(14) O=C(Nc1ccccc1C(=O)O)c1ccc(Br)o1
  0.8	-7	-6.8%[38.3 µM]	7	-7	-1.0
(15) CCOc1cc(CNc2ccc3c(c2)OCCO3)cc(Br)c1OC
  -0.1	26	8.0%	?	?	0.3
(16) COc1ccc(C(=O)NCN2CCN(c3ccccc3)CC2)cc1OC
  0.0	7	-0.8%	3	-2	9.3
(17) COc1ccc(CC(=O)N2CCN(c3cccc(Cl)c3)CC2)cc1OC
  -0.6	-3	-0.1%	0	-4	4.2
(18) CCN(C(=O)CSc1n[nH]c(-c2ccc(OC)cc2)n1)c1c(N)n(Cc2ccccc2)c(=O)[nH]c1=O
  1.0	-9	-0.2%	-12	7	-7.4
(19) Nc1cc(N2CCCCCC2)c2nonc2c1[N+](=O)[O-]
  ·	-1	0.6%	6	1	-10
(20) Cn1c(=O)c2[nH]c(COc3ccccc3)nc2n(C)c1=O
  -0.6	-6	3.5%	-23	?	-1.5
(21) O=C(C1CCCO1)N1CCN(Cc2nc3ccccc3c(=O)[nH]2)CC1 (stereo not given)
  -0.1	-12	-2.3%[38.3 µM]	12	-3	0.1
(22) Cn1ncc(Br)c1C(=O)N1CCOCC1
  0.7	-12	-0.1%	-4	1	-5.4
(23) CN(Cc1ccccc1)C(=O)c1oc(=O)c2ccccc2c1-c1ccccc1
  4.1	-12	-2.0%	10	-7	-0.9
(24) CC1(C2CC2)NC(=O)N(CC(=O)Nc2ccc(SC(F)F)cc2)C1=O (stereo not given)
  -0.1	-1	4.5%	3	5	3.8
(25) O=c1c2c(nc3nc(NCc4ccc(Cl)cc4)[nH]n13)CCC2
  0.4	-4	-1.3%	-3	0	4.3
(26) COc1ccccc1N1CCN(c2ncnc3sc(C)c(-c4ccccc4)c23)CC1
  0.6	-6	0.3%	-9	-3	-5.2
(27) Cc1cccc(C)c1NC(=O)CN(C)C(=O)c1ccc2nc[nH]c2c1
  -0.3	13	-0.5%	0	-2	3.8
(28) CCNC(=S)SCCOc1ccccc1C
  1.4	-35	4.0%	25	25	-4.4
(29) CN(NC(=O)C(C)(C)C)c1nc(-c2ccccc2)nnc1C(F)(F)F
  -0.4	0	4.5%	14	2	-2.4
(30) CCOC(=O)N1CCN(S(=O)(=O)c2ccc3c(c2)CC(C)N3C(C)=O)CC1 (stereo not given)
  0.4	-8	2.4%	·	2	-0.1
(31) CC(C)C(C)(C#N)NC(=O)CSc1nc(C2CCCCC2)n(-c2ccccc2)n1 (stereo not given)
  3.8	-5	3.4%	-9	5	2.8
(32) FC(F)(F)c1cc(-c2cccs2)nc2ncnn12
  0.4	1	0.5%	0	-5	-0.9
(33) COC(C[C@H](O)C[C@H](O)[C@@H](C)OCc1ccccc1)OC
  2.2	-2	-0.7%	2	1	-4.1
(34) COc1cc2c(cc1OC)-c1cc(Nc3ccccc3)nc(=O)n1CC2
  -0.3	-2	2.7%	1	-76*	-5.9
(35) CSc1nc2ccc(NC(=O)c3cccs3)cc2s1
  0.5	-19	2.1%	-8	-17	3.2
(36) O=C(N/N=C/c1ccc2c(c1)OCO2)c1ccc2c(c1)OCO2
  -0.8	-18	5.1%	3	0	-4.8
(37) COc1ccc(Cc2nnc(NN)[nH]c2=O)cc1OC
  -0.9	-3	2.3%	1	-91*	0.2
(38) CSCC[C@H](NC(=O)[C@H]1CC[C@H](CNC(=O)[C@@H](N)Cc2ccccc2)CC1)C(=O)O
  ·	-8	0.8%	-3	2	-1.3
(39) COc1ccc(C2CC(c3ccccc3)n3nnnc3N2)cc1 (stereo not given)
  0.8	-6	2.0%	0	-2	-1.7
(40) COCCCn1c(=O)c2sccc2n2c(CCCC(=O)N(C)Cc3ccco3)nnc12
  -0.3	-1	0.6%	-8	-14	1.1

In the list so far, these contain an aryl thioether with sulfur outside any ring:
The line under a structure holds: TRPML1 ag	D2 potentiator	PINK1 expr mod	CtBP-E1A blk	Six1-Eya2 inh	D2 agonist
(2) CCCCn1c(SCC(=O)Nc2cc(C)on2)nc2cc(S(N)(=O)=O)ccc21
  2.7	0	0.1%	-11	-1	-4.4
(18) CCN(C(=O)CSc1n[nH]c(-c2ccc(OC)cc2)n1)c1c(N)n(Cc2ccccc2)c(=O)[nH]c1=O
  1.0	-9	-0.2%	-12	7	-7.4
(24) CC1(C2CC2)NC(=O)N(CC(=O)Nc2ccc(SC(F)F)cc2)C1=O (stereo not given)
  -0.1	-1	4.5%	3	5	3.8
(31) CC(C)C(C)(C#N)NC(=O)CSc1nc(C2CCCCC2)n(-c2ccccc2)n1 (stereo not given)
  3.8	-5	3.4%	-9	5	2.8
(35) CSc1nc2ccc(NC(=O)c3cccs3)cc2s1
  0.5	-19	2.1%	-8	-17	3.2

New compounds follow.
The line under a structure holds: TRPML1 ag	D2 potentiator	PINK1 expr mod	CtBP-E1A blk	Six1-Eya2 inh	D2 agonist
(41) O=C(CNC(=O)c1cccc(Cl)c1)NCCCSc1ccccc1
  0.1	-19	-0.5%	4	-5	-2.5
(42) COc1ccc(C(C)=O)cc1Cn1c(C)c(C(=O)NCc2cccc(Cl)c2)sc1=O
  -0.9	0	-0.9%	?	?	7.5
(43) CCCCC[C@@H](C)N1C[C@@H](COCc2ccccc2)Oc2cc(N3CC[C@H](O)C3)ccc2S1(=O)=O
  -0.2	·	19%	-10	-12	·
(44) CC(C)N1CCC(N2CCN(Cc3nc4ccccc4s3)CC2CCO)CC1 (stereo not given)
  -0.3	-11	0.5%	2	0	-3.7
(45) CC(C)NC(=O)[C@]1(C)CCC[C@@]2(C)C3CC[C@@]4(C)C[C@]3(CCC21)CC4=O (stereo not given in full)
  -0.8	-8	-0.4%	4	-6	-2.0
(46) COC(=O)C1C(=O)C(C(=O)/C=C/c2ccccc2)C(=O)CC1(C)C (stereo not given)
  0.6	-8	-0.1%	-22	1	-1.2
(47) O=C(Nc1cccc(-c2ccc(N3CCOCC3)nn2)c1)c1ccccc1
  -0.6	5	0.8%	-9	-15	-0.1
(48) CCC(C)(C)n1nnnc1C(c1cc2cc(C)cc(C)c2[nH]c1=O)N1CCCC1 (stereo not given)
  0.1	-4	15%[38.3 µM]	-6	-3	-4.2
(49) CCCC(=O)Nc1ccc(NC(=O)c2ccccn2)cn1
  0.1	-8	-1.2%	5	6	-1.3
(50) COc1ccc(NC(=O)COC(=O)C2CC2)cc1S(=O)(=O)N1CCCCC1
  1.8	-1	1.8%	-19	1	-1.8
(51) O=C1c2ccccc2S(=O)(=O)N1Cc1cc(=O)n2ccsc2n1
  2.3	-4	-0.1%	-3	-1	0.7
(52) CCOCCN1CCN(C2c3ccccc3CSc3ccccc32)CC1 (stereo not given)
  1.8	-26	15%	5	-13	-0.8
(53) CCC(C)NC(=S)NNC(=O)c1ccc(C(C)(C)C)cc1 (stereo not given)
  -0.1	-10	3.1%	-1	-1	-5.2
(54) CC1(C)CC(=O)C(C=NCc2ccc3c(c2)OCO3)=C(O)C1
  2.4	-11	0.5%	4	2	0.3
(55) CCCCC1C(C#N)=C(C)NC2=C1C(=O)CC(C)(C)C2 (stereo not given)
  -0.3	-23	-0.9%	10	7	1.1
(56) O=C(CN1C(=O)NC2(CCCC2)C1=O)Nc1nc(-c2ccc(F)c(F)c2)cs1
  0.4	0	-1.1%	-9	-1	-1.6
(57) O=C1C2C3C=CC(C3)C2C(=O)N1CCC(=O)N1CCc2ccccc21 (stereo not given)
  0.3	0	?	8	5	1.8
(58) Cc1ccc(SCC(=O)NNC(=O)c2ccccc2)c(C)c1
  -0.4	0	0.0%	5	10	2.4
(59) O=C(NCCc1ccccc1)C1CC(=O)N(C2CCCC2)C1 (stereo not given)
  0.2	-7	0.0%	·	8	5.0
(60) COc1ccc(N=Cc2c(OC)ccc3ccccc23)cc1
  2.3	-4	1.5%	-3	-8	-4.8
(61) Cc1cc(C)cc(NC(=O)CSc2cc(C(=O)c3nccn3C)c3ccccc3n2)c1
  1.1	-15	1.9%	-4	0	-2.5
(62) CCOC(=O)c1cnc(SCC(C)C)nc1N
  0.9	-7	-3.9%	-12	8	-3.5
(63) CCOC(=O)Cc1csc(NC(=O)c2ccc(S(=O)(=O)N3CCCCC3)cc2)n1
  0.6	-4	-6.0%[38.3 µM]	0	4	0.7
(64) Cc1nc(N2CCN(c3ccccn3)CC2)c2c(C)c(C(=O)Nc3ccc(Br)cc3C)sc2n1
  55*	-12	2.9%	8	7	-3.2
(65) CCn1cc(C(=O)N[C@H](C(=O)NCCCn2ccnc2)C(C)C)c(=O)c2cc3c(cc21)OCO3
  0.7	-13	2.5%	-10	-5	-1.0
(66) COc1cccc2cc(-c3nc4ccccc4o3)c(=O)oc12
  -0.7	-3	4.6%	·	-2	2.4
(67) Cc1ccc(OCCn2c(Br)nc3c2c(=O)n(C)c(=O)n3C)cc1
  0.2	1	6.8%[38.3 µM]	40	29	-0.5
(68) CC1(C)Cc2ccccc2-c2nnc(SCC(=O)N3CCc4ccccc43)n21
  -1.0	-2	6.5%	4	2	-1.3
(69) Cc1ccc(CNC(=O)CCC(=O)Nc2nnc(C3CCCCC3)s2)cc1
  -0.6	-5	-0.4%	-1	1	-4.2
(70) CCOc1ccc(C(C)NC(=O)c2ccccc2OCc2c(C)noc2C)cc1OCC (stereo not given)
  0.4	-3	-0.7%	0	6	0.9
(71) COc1cc(NC(=O)Nc2ccc(C)cc2)cc([N+](=O)[O-])c1
  0.0	-10	2.7%	4	-2	-5.0
(72) COC(=O)C1=C(C)N(C)C(=S)N(C)C1c1cccc(Br)c1 (stereo not given)
  1.2	0	2.7%	1	-6	0.0
(73) COc1ccc(C(=O)NCC(=O)OCc2ccc(F)cc2Cl)cc1OC
  0.1	-2	0.5%	·	6	1.2

Source: PubChem BioAssay
